AID504770: growth inhibition of E. coli YBA685, primary screen, V. cholerae RctB inhibitors; 130,000 compounds, 0.27% hits; E. coli YBA685 rctB-dependent plasmid, OD600 growth, 3 h; active compounds read low; AID 504770, 2011; z-score (concentration not given with the values);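 active means z-score under -2 on both plates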;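 further: wells of about 30 µL received 100 nL stock; score is relative to mean and SD of the test wells; the first replicate is given; strong numbers were not always called active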
Ba CapD inh: Bacillus anthracis CapD inhibitors, primary screen, biochemical, fluorescence intensity | purified CapD enzyme, fluorescence intensity read-out; active compounds read low; some hits fall short of the stated cut | 140,000 compounds, 0.23% hits | z-score (no concentration beside the values) | CapD gamma-glutamyltranspeptidase (Bacillus anthracis Ames Ancestor) | AID 492967, 2010;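 active means z-score under -4 in either of two replicates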;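 further: stock transfer was 100 nL into about 40 µL; score is relative to mean and spread of the plate; one replicate is shown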
An asterisk follows results filed as active; i = inactive; . = no result given. This is a random part of the collection. Share with any hit: about 0.37%.

SMILES	AID504770	Ba CapD inh
O=c1sc(N2CCN(c3ccc(Cl)cc3)CC2)nc2ccsc12	-0.15	0.31
Cn1c(C(C#N)C(=O)C(Sc2ccccc2)c2ccccc2)nc2ccccc21 (centres undefined)	0.6	.
Nc1nccc2cccnc12	.	37
O=C(N=Nc1c(O)n(CN(Cc2ccccc2)Cc2ccccc2)c2ccccc12)c1ccco1	-0.15	-0.86
CC1=CCC2CC1C(C)OC2(C)C (centres undefined)	-0.75	.
C/C(=C(\CCOP(=O)(O)O)SC(=O)c1ccccc1)N(C=O)Cc1cnc(C)nc1N	.	109
NC(=O)CN1C(=O)S/C(=C\C=C\c2ccccc2)C1=O	-0.1	.
O=C(O)c1cccc(COCC(F)(F)F)c1	-1.3	-0.41
O=C(CCNS(=O)(=O)c1ccc2[nH]c(=O)ccc2c1)NC1CCCC1	1.1	6.1
O=C(O)CSCC(=O)N1CCCc2ccccc21	-0.9	0.1
CCCNC(=O)C1Sc2nnc(-c3ccccc3)n2NC1c1ccccc1 (centres undefined)	1.5	-0.57
CNC(=O)COC(=O)c1ccc(C#N)cc1	-2.4	.
CC(=O)Nc1ccc(NC(=O)Cn2c(=O)cc(C)c3c(C)nn(-c4cccc(F)c4)c32)cc1	0.45	-0.11
COc1cc(OC)c(C(=O)CCC(=O)O)cc1OC	0	-0.57
c1ccc(-c2nnc(CN3CCCCCC3)o2)cc1	-1.6	0.87
O=C1/C(=C/C=C/c2ccccc2)SC(=S)N1c1cccc(F)c1	1.7	-1.7
COCCOC(=O)C1=C(C)NC(C)=C(C(=O)OCCOC)C1c1ccc(-c2cccc(Br)c2)o1	.	7.7
COc1cc(-c2cc(C(F)(F)F)n3ncc(C(=O)O)c3n2)cc(OC)c1OC	-0.65	-0.92
Cc1sc2c(c1C)C(=O)NC(/C=C/c1ccc3c(c1)OCO3)N2 (centres undefined)	2.6	-0.94
CN(C)c1nc(N)nc(Cn2c(=O)oc3ccc(Cl)cc32)n1	-0.15	.
Clc1cccc(Cl)c1CSc1cccs1	-0.4	0.045
O=C(C1CCN(S(=O)(=O)c2cccc3nsnc23)CC1)N1CCCCC1	-1.7	.
O=C(O)c1ccccc1C(=O)c1cccs1	-0.1	i
O=C(CCNS(=O)(=O)c1ccc2c(c1)OCCO2)Nc1nccs1	-0.35	.
Cn1nnnc1SCC(=O)Nc1nccs1	-0.3	-0.005
SMILES	AID504770	Ba CapD inh
O=C(c1ccccc1)N1CCNCC1	-0.1	0.36
Cc1cc(=O)oc2cc(NC(=O)c3ccccc3C(=O)O)ccc12	-0.75	15
O=C(Nc1ccc(Br)cc1)c1ccc(F)c(S(=O)(=O)N2CCN(c3ccc(F)cc3)CC2)c1	.	-0.79
COc1cc(Cl)c(NC(C)=O)c(Cl)c1	.	0.67
CNC(=S)NNS(=O)(=O)c1ccc2ccccc2c1	-0.3	0.48
CC(OC(=O)C1COc2ccccc2O1)C(=O)N(C)c1ccccc1 (centres undefined)	0.1	.
CCCCNC(=O)n1c(=S)oc2cc(Cl)ccc21	2.4	-0.63
COCC(=O)OCc1cc(=O)oc2cc(O)ccc12	0.05	.
COc1ccc2nc(Nc3nnc(-c4ccccc4)o3)sc2c1	-0.05	-0.76
Cc1ccnc(SCc2cccc(C(=O)O)c2)n1	1.9	-0.94
CN1c2ccccc2-c2ccccc2C12C=Cc1cc([N+](=O)[O-])ccc1O2 (centres undefined)	.	0.49
CCC(=O)Nc1cc2ccccc2cc1NC(=O)CC	-0.45	0.75
C=CCN1C(=O)/C(=C/N(C(C)=O)c2ccccc2)SC1=S	1.2	-0.14
NS(=O)(=O)c1ccc(CNC(=O)c2ccccc2C(F)(F)F)cc1	-0.2	.
COc1ccc(C(=O)Nc2ccc(-c3n[nH]c(=S)o3)cc2)cc1OC	0.3	7.3
COc1cccc(OCCOc2ccc(-c3nc4sc5c(c4c(=O)[nH]3)CCCC5)cc2OC)c1	.	0.28
N#Cc1ccc(COC(=O)c2cc(=O)[nH]c3ccccc23)cc1	0.05	.
O=C(CSCC(=O)N1CCOCC1)Nc1nc(-c2ccccc2)cs1	-0.55	-0.005
Fc1ccc(-c2cc(-c3nc4c5ccccc5ncn4n3)[nH]n2)cc1	-0.4	-0.25
COc1ccc(N(C)C(=O)c2cc(N(C)C)nc(N(C)C)n2)cc1	.	-0.44
COC(=O)c1cc(OC)c(OC)cc1NC(=O)CSc1ccc(Cl)cc1	.	0.15
COc1ccc(-c2noc(CC(=O)NCCCN3C(C)CCCC3C)n2)cc1 (centres undefined)	-1.2	-0.025
O=C(NC1CCCCNC1=O)c1cnn(-c2ccccc2)c1C(F)(F)F (centres undefined)	-0.95	0.09
CCC1=Nc2cc(C(=O)N3CCN(C(=O)c4ccco4)CC3)ccc2Sc2ccccc21	-0.55	-0.39
N#Cc1ccccc1NC(=O)CN1CCN(S(=O)(=O)c2ccc(Br)s2)CC1	0.45	.
SMILES	AID504770	Ba CapD inh
O=C(CC1(C(F)(F)F)NCCN1)c1ccco1	-0.7	24
CC(=O)NC(NCCC12CC3CC(CC(C3)C1)C2)(C(F)(F)F)C(F)(F)F	0.15	0.39
O=C(Cc1nc2ccccc2[nH]1)NCc1ccc(Cl)cc1	-0.65	0.55
C(=Nc1ccccc1)c1ccc(-c2cccs2)s1	-0.15	70
C(=N\n1cnnc1)/c1nc2ccccc2[nH]1	0.1	42
CCN(CC)c1ccc(NC(C)C(=O)Nc2ccc(C)cc2)cc1 (centres undefined)	0.45	-0.39
COc1ccc(CN2C(=O)C=CC2=O)cc1	-1.4	-0.5
N#CC(=C1CCCCC1)c1nc2ccccc2s1	-0.95	0.07
CCNC(=O)n1nccc1C(C)Oc1ccccc1 (centres undefined)	-0.15	-0.47
CCN(CC)CCn1c2ccccc2n2cc(C)nc12	1.4	-0.55
O=C(Cc1ccccc1)Nc1ccccc1C(F)(F)F	-1.2	0.21
CCOC(=O)c1sc(NC(=O)C(CC)Sc2nnc(C)c(=O)[nH]2)nc1C (centres undefined)	.	-0.17
Cc1cc(C)nc(N2CCC(C(=O)NCc3cccc(C(F)(F)F)c3)CC2)n1	.	0.14
CCc1c(C)nc(SCC(=O)N(C(C)C)C(C)C)[nH]c1=O	-0.15	.
CC(C)Oc1ccc(CN2CCN(CCOC(=O)N3CC=C(n4c(=O)[nH]c5ccccc54)CC3)CC2)cc1	.	-0.21
CCCCCSc1nc2ccccc2n1Cn1nnc2ccccc2c1=O	2.1	.
O=C(Nc1ccc(-c2nc3ccccc3s2)c(O)c1)c1ccc(Cl)c([N+](=O)[O-])c1	.	0.42
CCOC(CNC(=O)c1ccc2c(c1)nc(C)n2-c1cc(Cl)ccc1OC)OCC	.	0.12
COc1ccc(C2=NOC(CNC(N)=S)C2)cc1 (centres undefined)	-0.25	0.63
CCOC(=O)c1cc2c(nc1C)-c1ccc([N+](=O)[O-])cc1C2=Nc1cccc2ccccc12	.	0.085
CCOC(=O)c1cccnc1SCC(=O)Nc1cc(OC)ccc1OC	-0.8	-0.34
COc1ccc(CCC(=O)NCCc2cn3ccccc3n2)cc1	1.3	0.01
Cc1ccc(/C=N/NC(=O)c2ccc(NS(=O)(=O)c3cccs3)cc2)o1	-0.25	.
O=C(NCC(c1cccnc1)N1CCOCC1)Nc1ccccc1 (centres undefined)	-0.45	.
CCOC(=O)c1cnc2c(C)cc(C)cc2c1Nc1ccccc1C	.	-0.45

Some of the entries above in another layout:
SMILES: CCOC(=O)c1cccnc1SCC(=O)Nc1cc(OC)ccc1OC
  AID504770: -0.8 | Ba CapD inh: -0.34

SMILES: COc1ccc(CCC(=O)NCCc2cn3ccccc3n2)cc1
  AID504770: 1.3 | Ba CapD inh: 0.01

SMILES: Cc1ccc(/C=N/NC(=O)c2ccc(NS(=O)(=O)c3cccs3)cc2)o1
  AID504770: -0.25 | Ba CapD inh: .

SMILES: O=C(NCC(c1cccnc1)N1CCOCC1)Nc1ccccc1 (centres undefined)
  AID504770: -0.45 | Ba CapD inh: .

Further structures
SMILES	AID504770	Ba CapD inh
NC(=O)Nc1ccc(C(=O)OCc2cc(=O)n3cc(Br)ccc3n2)cc1	0.15	.
CCC(CC)C(=O)N1CCCN(C(=O)C(CC)CC)CC1	1.8	-0.59
Cc1cccc(OC(C)c2nc(-c3ccccc3)no2)c1 (centres undefined)	0.85	-0.17
CCO/C=C(\C#N)c1nc(-c2ccccc2)cs1	0.05	.
NS(=O)(=O)c1ccc(CCNC(=O)CSc2nc3c(sc(=S)n3-c3ccccc3)c(=O)[nH]2)cc1	.	-0.6
CCC(C)n1c(C)cc(C(N)=O)c1C (centres undefined)	0.35	.
O=C(CC1COc2ccccc2O1)Nc1cccc(C(F)(F)F)c1 (centres undefined)	-0.35	-0.075
CC1=C(C#N)/C(=C/Nc2cccc(Cl)c2)CC(=O)N1	0.35	2.8
COc1cccc(OCc2nnc(SCC(=O)NC(C)(C)C)o2)c1	0.1	.
Nc1ccc(CS(=O)(=O)c2ccc(Cl)cc2)c(Cl)c1	0.05	0.19
CC(=O)N(c1ccc(C(F)(F)F)cc1)S(=O)(=O)c1ccc(N2C(=O)CCC2=O)cc1	-0.25	-2.5
COc1ccc(C(CNC(=O)Cc2cc(OC)c(OC)c(OC)c2)N2CCCC2)cc1 (centres undefined)	-0.45	.
Cn1nc(C(C)(C)C)cc1NC(=O)Nc1cccc2ccccc12	-0.15	17
c1ccc(Oc2nc(Oc3ccccc3)nc(Oc3ccccc3)n2)cc1	0.1	0.26
Cc1ccc(C2C(C(=O)c3ccco3)=C(O)C(=O)N2CCCN(C)C)o1 (centres undefined)	1.2	-0.88
Cn1c(-c2ccccc2O)[n+](C)c2ccccc21	0.4	1.7
CC(C)[C@H](NC(=O)c1ccccc1)C(=O)N1CCN(Cc2ccccc2)CC1	-0.5	.
CCCCCCSc1nnc2n(-c3ccccc3)c(=O)c3c(C)c(C)sc3n12	.	-0.39
C/C(=N/NC(N)=O)c1ccc2c(c1)Cc1ccccc1-2	-0.55	0.78
O=C(Nc1c2c(nn1-c1ccc([N+](=O)[O-])cc1)CS(=O)(=O)C2)c1ccc(Cl)c([N+](=O)[O-])c1	.	-0.74
Cc1ccc2c(nc3s/c(=C\c4ccc(OCc5ccccc5F)cc4)c(=O)n32)c1C	.	-0.27
CCCCCCc1nc2ccccc2c(=O)n1NC(=O)c1c(O)c2cccc3c2n(c1=O)CCC3	.	0.45
CCCCN(C)C(=O)Cn1nc(-c2ccc(Cl)cc2)ccc1=O	-0.7	2.2
COc1ccc2sc(C3C(=O)c4cccnc4C3=O)nc2c1 (centres undefined)	-0.25	.
Cc1csc2c(N3CCC(C(=O)O)CC3)ncnc12	-0.35	-0.14

Entries of single compounds as entered above. Order of screens: AID504770	Ba CapD inh
Entry for CC(=O)N(c1ccc(C(F)(F)F)cc1)S(=O)(=O)c1ccc(N2C(=O)CCC2=O)cc1 = -0.25	-2.5
Entry for CC1=C(C#N)/C(=C/Nc2cccc(Cl)c2)CC(=O)N1 = 0.35	2.8
Entry for CCCCCCc1nc2ccccc2c(=O)n1NC(=O)c1c(O)c2cccc3c2n(c1=O)CCC3 = .	0.45

The list goes on.
SMILES	AID504770	Ba CapD inh
Fc1cccc(Cl)c1CN1CCN(c2nccc(C(F)(F)F)n2)CC1	.	-0.22
O=C(NCCCn1ccnc1)OCc1nc(-c2ccc(Cl)cc2)cs1	.	0.49
Brc1cc(Br)cc(CN2CCSCC2)c1	0.15	0.45
CC(C)OCCCNC(=O)c1ccc(Cn2c(=S)[nH]c3ccc(Br)cc3c2=O)cc1	.	0.1
CCN(C#N)c1ccc(Cc2ccc(N(C#N)CC)cc2)cc1	-0.5	-0.05
CN1C(=C2C(=O)CC(C)(C)CC2=O)Sc2ccccc21	-0.15	-0.72
C[n+]1cccc2ccc(O)cc21	-0.35	0.055
CC1CC(C)CN(C(c2ccco2)c2sc3ncnn3c2O)C1 (centres undefined)	-0.1	.
COC(=O)C1=CN(Cc2ccc(Cl)cc2)C=C(C(=O)OC)C1c1cc(Br)c(O)c(OC)c1	.	17
N#Cc1c(SCC(=O)C23CC4CC(CC(C4)C2)C3)sc2c(=O)[nH]c(=O)[nH]c12	-0.7	.
Cc1noc(C(=O)N(C)C2CCCCC2)c1Cl	-0.25	0.38
O=C(CSc1nnc(-c2ccccc2F)n1C1CC1)Nc1ccccc1	-1	-0.2
Cc1nn(C)c2[nH]c(C(F)(F)F)cc(=O)c12	2.2	6.6
COc1ccc(N2C(=O)CC(c3ccccc3)C2=O)cc1 (centres undefined)	0.25	0.73
CCOC(=O)c1csc(NC(=O)C2CCCCC2)n1	-1.1	i
O=S(=O)(c1ccccc1)N(C1=NCCS1)S(=O)(=O)c1ccccc1	-0.85	.
O=C(O)CSCC(=O)Nc1cccc2ccccc12	0.4	.
O=C(Nc1cccc(-c2nc3ccccc3[nH]2)c1)c1cccc(N2C(=O)CCC2=O)c1	0.05	0.085
CCCNC(=O)c1ccc2c(c1)NC(=O)/C(=C/c1ccccc1)S2	1.4	1.6
Cc1cc(C)cc(Oc2coc3c(CN(C)C)c(O)ccc3c2=O)c1	-0.7	41
O=C(OCC(=O)N1c2ccccc2Sc2ccccc21)C1=COCCO1	-0.25	.
Cc1cc(Cc2ccc(C(F)(F)F)cc2)c(=O)[nH]n1	-0.35	-0.46
CC1(C)C2CC=C(COCC(O)CNCc3ccccn3)C1C2 (centres undefined)	-0.05	.
O=C1/C(=C\c2ccccc2)N2CCC1CC2	2.6	-1.7
Cn1c(=S)[nH]c2ccccc21	-1.6	.
CCn1c(=N)c(C(=O)NC2CCCCC2)cc2c(=O)n3ccccc3nc21	-1.5	18
COc1cc(OC)c(OC)cc1CN1CCN(c2cccc(C)c2C)CC1	-0.3	0.035
COc1ccccc1NC(=O)Nc1cc(C(C)(C)C)nn1-c1ccccc1	0.6	.
CC1CC(NC(=S)NCCO)CC(C)(C)C1 (centres undefined)	0	0.045

High-throughput results deposited in PubChem BioAssay by ICCB-Longwood Screening Facility, Harvard Medical School.
